Compound activity (PubChem)
Cruzain Triton: inhibitors of Trypanosoma cruzi cruzain with detergent. P25779. purified cruzain, Z-FR-AMC fluorescence, 0.01% Triton. Potency, µM, inactives show max response, negative = inhibition, usual class: inhibitors. hit rate 0.43% among 200,000. AID 1478; active = well fitted curve in the direction sought with a large enough effect; inconclusive = small, poorly fitted or top-dose-only effect, or another doubt; inactive = no such curve, though single readings can be large; an effect the other way counts as inactive or inconclusive;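 also: plate controls were neutral wells for no effect and buffer without enzyme for full effect; nearly all actives have a fitted effect of over 40% in size; top concentration of the series not given in the record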
Target sequence (P25779 123-467 limits assumed): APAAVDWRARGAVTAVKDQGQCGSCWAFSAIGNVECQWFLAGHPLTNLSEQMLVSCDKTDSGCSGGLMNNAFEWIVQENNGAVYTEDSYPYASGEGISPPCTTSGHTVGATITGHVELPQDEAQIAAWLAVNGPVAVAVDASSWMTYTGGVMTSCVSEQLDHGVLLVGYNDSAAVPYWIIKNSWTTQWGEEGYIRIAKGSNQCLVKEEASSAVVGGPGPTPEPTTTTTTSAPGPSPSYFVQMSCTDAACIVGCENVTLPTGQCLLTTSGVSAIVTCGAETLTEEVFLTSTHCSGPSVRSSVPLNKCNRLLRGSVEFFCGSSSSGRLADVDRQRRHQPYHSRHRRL
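Z-FR-AMC hydrolysis (2 uM substrate) by cruzain (1.5 nM) monitored kinetically at ex 360/em 450 nm after 15 min room-temperature compound exposure; 0.01% Triton X-100, pH 5.5, 5 mM DTT.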
LASV entry inh: blocks Lassa virus binding to or entry into cells; Lassa virus pseudotype entry inhibition, cell reporter; control for the full effect not named in the record; Potency, µM (highest dose often 37.9 µM), for inactives: at the top dose activity change, negative = inhibition, usual class: inhibitors; hit rate 1.2% among 300,000; AID 540256; active means well fitted inhibition curve with a large enough effect; inconclusive means small, poorly fitted or top-dose-only effect, or effect the other way; inactive means flat fitted curve, though single readings scatter; tested in HEK293 cells; also: % is scaled to controls: 0 for no effect and ±100 for the full control effect; nearly all actives have a fitted effect of over 50% in size; luciferase read-out
MARV entry inh: inhibitors of Marburg virus binding or cell entry. Marburg virus pseudotyped entry inhibition, cell reporter; control for the full effect not named in the record; about a third of the inactives were read at about 46 µM. Potency, µM (top dose mostly 37.8 µM), for inactives: at the top dose activity change, negative = inhibition, actives largely listed as inhibitors. AID 540276. hit rate 1.8% among 300,000; active = well fitted inhibition curve with a large enough effect; inconclusive = small, poorly fitted or top-dose-only effect, or effect the other way; inactive = flat fitted curve, though single readings scatter; tested in HEK293 cells; about a fifth of its hits are not listed in these tables; also: % is scaled to controls: 0 for no effect and ±100 for the full control effect; luciferase read-out
NS1 inh: blocks influenza NS1 protein function; S. cerevisiae slowed by influenza A NS1, growth recovery by OD600; Potency, µM (series often up to 46.1 µM), for the others: at the highest dose activity, positive = more growth; hit rate 0.4% among 270,000; AID 2326; also: actives are rising curves; nearly all actives have a fitted effect of over 50% in size
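Compounds were scored for reversing the slow growth caused by influenza A NS1 in S. cerevisiae, measured by optical density at 600 nm. Assay medium contained 2% galactose at pH 6.0; NS1-free yeast of the same strain were the positive control.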
Cruzain noTriton: blocks cruzain activity in detergent-free assay; AID 1476; P25779; Potency, µM, inactives show max response, negative = inhibition, most hits filed as inhibitors; purified cruzain, Z-FR-AMC fluorescence, no detergent; hit rate 2.3% among 200,000; active = well fitted curve in the direction sought with a large enough effect; inconclusive = small, poorly fitted or top-dose-only effect, or another doubt; inactive = no such curve, though single readings can be large; an effect the other way counts as inactive or inconclusive;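 also: plate controls were enzyme without inhibitor for no effect and buffer without enzyme for full effect; nearly all actives have a fitted effect of over 40% in size; top concentration of the series not given in the record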
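Detergent-free condition (0.00005% Triton X-100) in acetate buffer pH 5.5 with DTT. 1.5 nM enzyme and compound were pre-mixed 15 min, then 2 uM Z-FR-AMC substrate added; reaction progress from fluorescence change between first and third reads (60 s).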
SARS PLpro yeast: SARS-CoV PLP inhibition in yeast | Potency, µM (highest dose often 32.9 µM), for inactives: top-dose activity, positive = growth rescue | AID 485353 | S. cerevisiae expressing SARS-CoV PLpro, growth rescue; control for the full effect not named in the record | hit rate 0.19% among 330,000; also: 0% is about no effect; nearly all actives have a fitted effect of over 55% in size; growth read by luminescence after 48 h
2A StopGo: lowers the luciferase signal of an FMDV 2A StopGo reporter. human cells with a luciferase reporter of 2A StopGo recoding; control for the full effect not named in the record. AID 1159524. Potency, µM (highest dose often 57.9 µM), for inactives: at the highest dose signal change, negative = less light. hit rate 1.2% among 410,000; active = well fitted falling curve with a large enough effect; inconclusive = small, poorly fitted or top-dose-only effect; inactive = no such curve, though single readings can be large or run the other way; tested in HEK293T cells; also: % is scaled to controls: 0 for no effect and ±100 for the full control effect; nearly all actives have a fitted effect of over 45% in size; luciferase light after 4 h
RE007 growth inh: less growth of the S. pombe RE007 Vpr strain; hit rate 0.21% among 360,000; Potency, µM (top dose mostly 92.2 µM), inactives show at the top dose activity change, negative = less growth; S. pombe RE007 Vpr strain, BacTiter-Glo ATP luminescence, 24 h; control for the full effect not named in the record; active = well fitted falling curve with a large enough effect; inconclusive = small, poorly fitted or top-dose-only effect; inactive = no such curve, though single readings can be large or run the other way;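 also: % is scaled to controls: 0 for no effect and ±100 for the full control effect; nearly all actives have a fitted effect of over 50% in size; the assay follows cell death caused by Vpr and the record does not say whether a fall means rescue or toxicity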
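Fission yeast RE007 carrying one integrated HIV-1 vpr copy, seeded at OD 0.01 in PMG+AL medium with 23 nL pinned compound. Grown 24 h at 30 degrees; viability read by BacTiter-Glo luminescence after 5 min.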
An asterisk follows results filed as active; ? = inconclusive; / = no result given; [ ] = another dose, or the depositor's remark. Unless noted, calls follow the shape of the dose curve; as a rule, active means well fitted rising curve with a large enough effect; inconclusive means small, poorly fitted or top-dose-only effect; inactive means no such curve, though single readings can be large or run the other way. Potency is read from the fitted curve at half-maximal effect.

SMILES	Cruzain Triton	LASV entry inh	MARV entry inh	NS1 inh	Cruzain noTriton	SARS PLpro yeast	2A StopGo	RE007 growth inh
Cc1cccc(C2c3[nH]c4ccccc4c3CCN2C(=O)Cc2nc(-c3ccccc3)n[nH]2)n1 (stereo not drawn)	/	-24%	?	12%	/	1%	?	28%
c1ccc(CN2C3=NCCCN3c3ccccc32)cc1	0.0%	-2%	?	2%	-20%	0%	-28%	0%
Cc1nnc(NC(=O)C(=O)c2cc(C)n(-c3ccc(C)c(C)c3)c2C)s1	-5.1%	?	?	/	11%	/	6%	/
CCS(=O)(=O)c1ccc(C(=O)NC2CC2)c(Cl)c1Cl	/	/	/	1%	/	-2%	-7%	2%
Cc1ccsc1C(=O)OCC(=O)N1CCN(C(=O)c2ccco2)CC1	/	11%	2%[46.1 µM]	/	/	0%	29%	0%
O=C1CCCC(=O)N1c1ccc(N2CCN(c3ccccc3)CC2)c([N+](=O)[O-])c1	-3.7%	4%	11%	-2%	11%	7%	-25%	-3%
COc1cccc(C2=NOC(C(=O)NCc3ccccc3)C2)c1 (stereo not drawn)	-0.5%	-11%	-9%	-31%	6%	-2%	23%	6%
CC(C)C(=O)Nc1cccc(NC(=S)NC(=O)C(c2ccccc2)c2ccccc2)c1	-13%	?	-14%	17%	?	3%	-21%	10%
Cc1cccc(NC(=O)C2CCN(S(=O)(=O)c3cccs3)CC2)n1	0.2%	-3%	-22%	-7%	11%	6%	?	-11%
CC(C)CCn1c(-c2nonc2N)nc2ccccc21	-14%	-23%	?	1%	-5%	-9%	-1%	8%
Cn1c(SCc2ccc(F)cc2)nnc1-c1cccs1	3.2%	6%	12%	-47%	2%	-2%	52%[activator]	5%
Cc1cccc(N2CCN(c3ccc(C(=O)O)cc3NC(=O)c3cccc(Cl)c3)CC2C)c1 (stereo not drawn)	?	?	/	/	19%	/	0%	/
CCCCCOC(=O)C1=C(C)NC(=O)NC1c1ccc(N(C)C)cc1 (stereo not drawn)	/	/	/	6%	/	0%	-25%	-2%
COc1ccc(OC)c2[nH]c(=O)c(CCNC(=O)c3ccc4c(c3)OCO4)cc12	/	5%[46.1 µM]	?	/	/	-1%	-22%	2%
CC(=O)C(=Cc1ccc(C(=O)O)cc1)C(C)=O	/	?	8%[46.1 µM]	/	/	0%	-5%	1%
CC1=C(C(N)=O)C(c2ccccc2F)n2nc(CCCO)nc2N1 (stereo not drawn)	/	21%	-15%	5%	/	0%	5%	0%
COc1cccc(CNC(=O)c2sc3nc(C)cc(C)c3c2-n2cccc2)c1OC	-2.5%	27%[46.1 µM]	?	/	1%	/	2%	/
CC(C)Nc1nc2cccnc2s1	/	10%	7%[46.1 µM]	1%	/	3%	23%	25%
CCC(c1nnnn1Cc1ccccc1)N1CCN(c2ccc(OC)cc2)CC1 (stereo not drawn)	/	-29%	-17%	-3%	/	0%	-20%	18%
NC(=O)c1cccc(S(=O)(=O)N2CC(c3ccccc3)CC2=O)c1 (stereo not drawn)	-1.0%	/	-3%	3%	-11%	-11%	-7%	-4%
COCCN(C(=O)COC(=O)C1=COCCO1)c1c(N)n(Cc2ccccc2)c(=O)[nH]c1=O	/	12%	1%	7%	/	-1%	-23%	5%
CCC(C)[C@H](NC(=O)N1CCn2c1nc1ccccc12)C(=O)NCC1CCCO1 (stereo partly drawn)	/	/	/	-8%	/	2%	-13%	3%
Cc1occc1C(=O)Nc1nn[nH]n1	-3.1%	1%	8%	-22%	0%	-1%	3%	-18%
COc1ccccc1Nc1nc(N)nc(CN2CCOCC2)n1	2.6%	/	/	3%	-2%	-6%	-2%	-5%
Cc1cc(C(=O)O)cc(S(=O)(=O)NNC(=O)c2cccs2)c1C	/	/	/	1%	/	-1%	13%	17%
Remaining list, next part
SMILES	Cruzain Triton	LASV entry inh	MARV entry inh	NS1 inh	Cruzain noTriton	SARS PLpro yeast	2A StopGo	RE007 growth inh
Cc1ccc(S(=O)(=O)N2CCOCC2)cc1NC(=O)CNCc1ccccn1	/	/	/	8%	/	1%	-21%	4%
COc1ccc(CCNCC(=O)Nc2c(C)cc(C)cc2C)cc1OC	/	/	/	28%	/	0%	0%	0%
CN(C(=O)COC(=O)c1ccc(S(=O)(=O)N2CCCC2)cc1)c1ccccc1	/	17%	12%[46.1 µM]	-6%	/	2%	-3%	3%
Cc1ccc(C2=NOC(=O)/C2=C\C=C\c2ccccc2)cc1	/	?	?	1%	/	-6%	14µM*	35%
COc1ccc(NC(=O)c2c(C)oc3ccc(O)c(CN4CCCCCC4)c23)cc1Cl	-7.1%	?	4.5µM*	/	?	/	0%	/
COc1cc(/C=N/NC(=O)CN(Cc2ccccc2)S(=O)(=O)c2ccc3c(c2)OCCO3)ccc1O	-3.9%	?	36%	?	-1%	14%	?	2%
COc1ccccc1NC(=O)c1cc(S(=O)(=O)N2CCN(c3ccccc3Cl)CC2)ccc1F	0.7%	13%[46.1 µM]	/	/	10µM*	/	-7%	/
COc1ccc2c(c1)Cc1sc(NC(=O)c3ccccc3Br)nc1-2	-7.8%	-7%[46.1 µM]	27%[46.1 µM]	/	-27%	/	5%	/
O=C(NCc1ccco1)c1nn2cccnc2c1Cl	/	/	/	1%	/	0%	10%	-1%
COc1ccc(NC(=O)CCNC(=O)N2CC(=O)Nc3ccccc32)c(OC)c1	/	-9%[46.1 µM]	21%[46.1 µM]	13%	/	5%	26%	11%
Cn1c(C(=O)O)c(CC(=O)N2CCC(Cc3ccccc3)CC2)c2ccccc21	-5.0%	17%	-4%	26%	12%	?	-6%	-1%
OC(CNC1CCCCCC1)COc1cccc2ccccc12 (stereo not drawn)	/	?	?	-2%	/	0%	-8%	9%
COc1ccc(CC(=O)NCCc2cnc[nH]2)cc1	/	/	/	5%	/	-2%	-21%	-7%
COc1ccc(C(C)C)cc1S(=O)(=O)N1CC(C)OC(C)C1 (stereo not drawn)	/	-9%	15%	-4%	/	-1%	19%	13%
CC(C)[C@H](NC(=O)c1ccccc1)C(=O)NC1=NCCS1	/	10%	4%	/	/	-10%	-15%	15%
CCn1c(SCC(=O)Nc2ccc(C)c(C)c2)nnc1-c1nonc1NC(C)=O	-5.2%	6%[46.1 µM]	3%[46.1 µM]	/	?	/	0%	/
COc1ccc(C(=O)OCC(=O)Nc2ccc(F)c(F)c2)cc1OC	2.9%	13%	-13%	-5%	2%	8%	-22%	1%
CC(C)c1nc(SCC(=O)NC2CCCC2)c2c(=O)n(C)c(=O)n(C)c2n1	/	10%[46.1 µM]	28%[46.1 µM]	9%	/	?	?	7%
CN(C(=O)c1ccncc1)C1CC(C)(C)N(O)C(C)(C)C1	2.1%	17%	-7%[46.1 µM]	-1%	-18%	9%	-22%	9%
CC1CCCCC12NC(=O)N(Cn1nnc3ccccc3c1=O)C2=O (stereo not drawn)	-4.7%	10%	-15%	-10%	-1%	-5%	-17%	9%
COc1ccccc1N(CC(=O)NC1CCCCC1)C(=O)CNC(=O)c1cccs1	/	/	1%[46.1 µM]	-10%	/	3%	50%[activator]	-10%
Cc1cc(C)cc(Nc2nc3c([nH]2)c(=O)n(C)c(=O)n3C)c1	/	/	/	-31%	/	0%	-6%	5%
C=CCn1c(Cc2cccs2)nnc1SCC(=O)NC1CC1	/	/	/	-3%	/	-5%	-20%	15%
CC(C)c1ccc(S(=O)(=O)c2nnn3c2nc(N2CCCC2)c2sccc23)cc1	-0.3%	1%[46.1 µM]	/	/	6%	/	-10%	/
Cn1c(SCCC(=O)O)nnc1-c1ccncc1	-0.4%	-2%	8%	8%	2%	7%	/	14%
Following part.
SMILES	Cruzain Triton	LASV entry inh	MARV entry inh	NS1 inh	Cruzain noTriton	SARS PLpro yeast	2A StopGo	RE007 growth inh
COc1cc(/C=C2\SC(=S)N(NC(=O)c3ccncc3)C2=O)ccc1O	/	/	/	4%	/	0%	-17%	-7%
CSCC[C@H](NC(=O)COc1ccc(Cl)cc1Cl)c1nc2ccccc2[nH]1	6.3µM*	-2%	?	-4%	7%	4%	?	-28%
O=C(CCN1CCN(Cc2ccccc2)CC1)Nc1cccc(Br)c1	/	?	-49%	-4%	/	-1%	-29%	-5%
O=S(=O)(c1ccc(Br)cc1)N1CCOC12CCCCC2	/	10%	-3%[46.1 µM]	-33%	/	-3%	0%	3%
Cn1c(=O)c2c(nc(-n3ccnc3)n2Cc2ccc(Cl)cc2Cl)n(C)c1=O	3.9%	20%	?	-1%	14%	-1%	/	-4%
COc1ccc(OC)c(/C=C(\C#N)c2nc(-c3ccc(F)cc3)cs2)c1	0.1%	21%[46.1 µM]	/	/	-5%	/	-4%	/
O=C(COC(=O)CCN1C(=O)/C(=C\C=C\c2ccccc2)SC1=S)Nc1ccc(Br)cc1	/	-26%[46.1 µM]	?	5%	/	0%	?	10%
COc1ccc(S(=O)(=O)N(C)c2ccc(C(=O)N3CCN(C)CC3)cc2)cc1	/	9%	4%[46.1 µM]	5%	/	24%	-6%	-7%
COc1ccccc1NC(=O)c1cc2c(=O)oc3ccc(C)cc3c2s1	1.1%	-10%[46.1 µM]	6%[46.1 µM]	/	0%	/	-18%	/
COc1ccc(C2C3=C(CC(C)(C)CC3=O)Nc3c2c(=O)[nH]c(=O)n3Cc2ccccc2)cc1OC (stereo not drawn)	-4.1%	-4%	-1%	-37%	-10%	-8%	-24%	-14%
O=C(COC(=O)c1cc(S(=O)(=O)N2CCOCC2)c(Cl)cc1Cl)Nc1ncc(C(F)(F)F)cc1Cl	-1.1%	4%	-5%	2%	6%	11%	21%	7%
CCCCn1nc(CC(=O)O)c2ccccc2c1=O	-3.3%	14%	20%	-1%	-9%	3%	25%	13%
COc1nc(C#N)c(N2CCOCC2)o1	5.4%	-14%	?	-2%	0%	3%	6%	-15%
CCCCCCOc1ccc(OCC(O)CN2C(=O)NC(C)(C)C2=O)cc1 (stereo not drawn)	-0.9%	-30%	-1%	10%	?	-5%	41%[activator]	-12%
COc1cc(SC)ccc1C(=O)OCc1nc2ccsc2c(=O)[nH]1	/	-7%	14%	/	/	-1%	-6%	-3%
COc1ccc(CC(=O)NNC(=O)c2ccccn2)cc1	/	-7%[46.1 µM]	?	-2%	/	2%	11%	14%
CCOc1ccc(NC(=O)c2ccc(Cl)c(NC(=O)c3ccco3)c2)cc1	/	8%	3%	1%	/	1%	4%	3%

Random draw from the library; any-hit rate near 4.6%.
